HCMV NEC inh: disrupts HCMV UL50-UL53 complex binding | HTRF UL50-UL53 interaction, normalized percent inhibition | inhibition, % (test concentration not listed) | actives 0.15% (n = 190,000) | AID 1918969;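 active = both replicates at 50% or more, plus weaker picks with an unusually low signal ratio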;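 also: stock transfer was 100 nL into about 20 µL; 0% = negative control wells and 100% = wells with untagged competitor protein; inactives centre near -12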
An asterisk follows results filed as active; & = joins results of further samples. A portion of the library. The share of hits here may be higher or lower than overall.

SMILES | HCMV NEC inh
CC(=O)O[C@H]1C[C@@]2(C)[C@@H](C[C@@H](O)[C@H]3[C@@]4(C)CC[C@@H](O)[C@@H](C)C4CC[C@@]32C)/C1=C(\CCC=C(C)C)C(=O)O (stereo partly drawn) | -10
Cc1cccc(NC(=O)CC(NC(C)C)C(=O)O)c1 (stereo not drawn) | 1&-8
Clc1ccc(CSc2nc3ccccc3s2)cn1 | -7
CCn1c(CNC(=O)c2ccccc2)nc2ccccc21 | -2
Cc1ccc(NC(=O)c2cccc(C(C)(C)C#N)c2)cc1Nc1ccc2ncn(C)c(=O)c2c1 | 4&-11&-14&-16&-15
Cc1ccc(-c2csc(NC(=O)c3cccc(Cl)c3)n2)cc1C | -24
COc1ccc(C(=O)c2ccc(OC)c(OC)c2)cc1OC | -19
Oc1c(CN2CCCCC2)cc(Cl)c2cccnc12 | -24
CCC(=O)NC(C)c1nc2ccccc2n1CC (stereo not drawn) | 3
NC(=O)c1cnn(-c2ccc3ccccc3c2)c1N | -41
O=C1c2oc3ccccc3c(=O)c2C(c2cccc(Cl)c2)N1CCO (stereo not drawn) | -6
CCCCC(=O)NCc1ccc2[nH]c(C)cc2c1 | -9
Cc1ccc(Nc2ncnc3c2cnn3-c2ccccc2)cc1 | 4
CCCOC1CCCN(C2CCN(c3ccc(F)c(F)c3)CC2)C1 (stereo not drawn) | -2
Cc1cccc(N2C(=O)N(Cc3ccccc3)c3ccccc3S2(=O)=O)c1 | -7
COC(=O)c1ccc(C(=O)Nc2ccc3sccc3c2)cc1 | -7
CCCC(=O)Nc1cccc(NC(=O)c2ccccc2Br)c1 | -27
Oc1c(C(c2ccc(F)cc2)N2CCCC2)ccc2cccnc12 (stereo not drawn) | -12
CCN(C(=O)CCn1c(=O)oc2ccccc21)c1ccccc1 | -10
CC(COc1ccc(C(C)C)cc1)NC(=O)c1ccc(Br)o1 (stereo not drawn) | -6
COc1cccc2cc(C(=O)NCCc3c(C)[nH]c4c(C)cccc34)c(=O)oc12 | -1
C/C=C1\C2C=C(C)CC1(N)c1ccc(=O)[nH]c1C2 (stereo not drawn) | -4
Nc1c(S(=O)(=O)O)cc(Nc2cccc3ccccc23)c2c1C(=O)c1ccccc1C2=O | -70
COc1cccc(OC)c1C(=O)Nc1ccc(Br)cc1C | -15
Cc1nn(C)c(C)c1-c1ccnc(N2CCC(C(=O)NCc3ccccn3)CC2)n1 | -14

24 of the compounds above, as tab-separated lines.
SMILES	HCMV NEC inh
Cc1cccc(NC(=O)CC(NC(C)C)C(=O)O)c1 (stereo not drawn)	1&-8
Clc1ccc(CSc2nc3ccccc3s2)cn1	-7
CCn1c(CNC(=O)c2ccccc2)nc2ccccc21	-2
Cc1ccc(NC(=O)c2cccc(C(C)(C)C#N)c2)cc1Nc1ccc2ncn(C)c(=O)c2c1	4&-11&-14&-16&-15
Cc1ccc(-c2csc(NC(=O)c3cccc(Cl)c3)n2)cc1C	-24
COc1ccc(C(=O)c2ccc(OC)c(OC)c2)cc1OC	-19
Oc1c(CN2CCCCC2)cc(Cl)c2cccnc12	-24
CCC(=O)NC(C)c1nc2ccccc2n1CC (stereo not drawn)	3
NC(=O)c1cnn(-c2ccc3ccccc3c2)c1N	-41
O=C1c2oc3ccccc3c(=O)c2C(c2cccc(Cl)c2)N1CCO (stereo not drawn)	-6
CCCCC(=O)NCc1ccc2[nH]c(C)cc2c1	-9
Cc1ccc(Nc2ncnc3c2cnn3-c2ccccc2)cc1	4
CCCOC1CCCN(C2CCN(c3ccc(F)c(F)c3)CC2)C1 (stereo not drawn)	-2
Cc1cccc(N2C(=O)N(Cc3ccccc3)c3ccccc3S2(=O)=O)c1	-7
COC(=O)c1ccc(C(=O)Nc2ccc3sccc3c2)cc1	-7
CCCC(=O)Nc1cccc(NC(=O)c2ccccc2Br)c1	-27
Oc1c(C(c2ccc(F)cc2)N2CCCC2)ccc2cccnc12 (stereo not drawn)	-12
CCN(C(=O)CCn1c(=O)oc2ccccc21)c1ccccc1	-10
CC(COc1ccc(C(C)C)cc1)NC(=O)c1ccc(Br)o1 (stereo not drawn)	-6
COc1cccc2cc(C(=O)NCCc3c(C)[nH]c4c(C)cccc34)c(=O)oc12	-1
C/C=C1\C2C=C(C)CC1(N)c1ccc(=O)[nH]c1C2 (stereo not drawn)	-4
Nc1c(S(=O)(=O)O)cc(Nc2cccc3ccccc23)c2c1C(=O)c1ccccc1C2=O	-70
COc1cccc(OC)c1C(=O)Nc1ccc(Br)cc1C	-15
Cc1nn(C)c(C)c1-c1ccnc(N2CCC(C(=O)NCc3ccccn3)CC2)n1	-14

Back to the main list; the two compounds before the break are reprinted first.
SMILES | HCMV NEC inh
COc1cccc(OC)c1C(=O)Nc1ccc(Br)cc1C | -15
Cc1nn(C)c(C)c1-c1ccnc(N2CCC(C(=O)NCc3ccccn3)CC2)n1 | -14
NC(c1ccccc1)C(F)(F)C(=O)O (stereo not drawn) | -12
O=c1oc(-c2ccc(C(F)(F)F)cc2)nn1Cc1cc(Cl)ccc1O | 3
CC1(C)C(C=C(Cl)Cl)C1C(=O)N1CCOCC1 (stereo not drawn) | 15
ClC1=C(c2ccncc2)NC(c2ccccc2)=CS1 | -26
CCOC(=O)c1sc(NC(=O)COc2ccccc2)nc1-c1ccccc1 | -4
CC(=O)NCC(=O)N[C@H](CCC(=O)O)C(=O)O | -8
COc1ccc(Br)cc1S(=O)(=O)NCc1ccc2c(c1)OCO2 | 10
Cc1ccc(C(=O)CSC2=C(C#N)C(c3ccco3)C3=C(CCCC3=O)N2)cc1 (stereo not drawn) | -50
CN1CCN(c2ccc(-c3ccnn3C(=O)Nc3cccc(C(F)(F)F)c3)cc2)CC1 | -5
COc1cc(OC2CCN(C)CC2)ccc1Nc1ncc2c(n1)n(C1CCCC1)c(=O)n2C | -4
COc1ccc(C[C@H](N)C(=O)N[C@H]2[C@@H](O)[C@H](n3cnc4c(N(C)C)ncnc43)O[C@@H]2O)cc1 | -2
CC(C)OC(=O)CCC/C=C\C[C@H]1C(=O)C[C@@H](O)[C@@H]1/C=C/[C@@H](O)COc1cccc(C(F)(F)F)c1 | -33&-33
Cc1sc2nc(SCc3nnc(Nc4ccccc4)s3)nc(N)c2c1C | -8
NC(=O)c1ccc(NC(=O)COc2cc(Cl)ccc2Cl)cc1 | -16
O=c1oc2ccc(Cl)cc2cc1-c1cn2ccccc2n1 | -31
CSC1=C(C#N)C(c2ccccc2Cl)C(C(=O)Nc2ccccc2)=C(C)N1 (stereo not drawn) | -24
FC(F)(F)c1cccc(Sc2ccc3nnc(Cl)n3n2)c1 | -14
CC(C)(C)OC(=O)Nc1ccc(-c2cc(C(=O)NCCCCCCC(=O)NO)no2)cc1 | -12&-12
CCN(CC)CCOC(=O)C1(c2ccc([N+](=O)[O-])cc2)CCCC1 | -42&-58
Cc1cc(=O)[nH]c(-c2ccccc2)n1 | -12
CCCc1cc2c(-c3ccccc3)cc(=O)oc2cc1O | -9
Cc1cc(C)c(S(=O)(=O)N2CCCCC2C(=O)O)c(C)c1 (stereo not drawn) | -11
Cn1nc(C(=O)N2CCCCCC2)c2c1CCC(NCc1ccc(C(F)(F)F)cc1)C2 (stereo not drawn) | -5
CC(O)CC(C)(C)O (stereo not drawn) | -62
CCCCC(Sc1ccc2nnc(-c3ccc(F)cc3)n2n1)C(=O)O (stereo not drawn) | -11
Next structures:
SMILES | HCMV NEC inh
O=C1C[C@@H]2[C@@H](CC[C@@H](O)CCc3ccccc3)[C@H](O)C[C@@H]2O1 | -11&-11
C=CCSc1nc(N)c2c(C)c(C)sc2n1 | -7
CCOC(=O)CCN1C(=O)/C(=C\c2cccs2)SC1=S | -8
CC(=O)[C@H]1CC[C@H]2[C@@H]3C=CC4=CC(=O)CC[C@@]4(C)[C@H]3CC[C@]12C | -8
CC(=O)NC(Sc1ccc(Cl)cc1)C(=O)c1ccccc1 (stereo not drawn) | -16
CC(=O)Nc1ccc2nc(NC(=O)CCc3ccccc3)sc2c1 | -22
COC(=O)c1c(NC(=O)c2ccc(Cl)s2)sc2c1CCN(C(C)=O)C2 | -3
CCOC(=O)CN1C(=O)N(c2ccccc2OC)S(=O)(=O)c2ccccc21 | -8
CC(NC(=O)C12CC3CC(CC(C3)C1)C2)C(=O)N1CCOCC1 (stereo not drawn) | 7
COc1ccc(-n2ncc3c(=O)[nH]cnc32)cc1 | -11
O=C(NC1CCCCC1)/C(=C\c1cccs1)NC(=O)c1ccccc1 | -25
CN(C)CCc1c[nH]c2ccc(CS(=O)(=O)N3CCCC3)cc12 | 0
CN(C)C(=O)CN(C)C(=O)c1cccc(Nc2ncnc3c2cnn3C)c1 | 44&44
COc1cccc(/C=N/c2sc3c(c2C#N)CCCC3)c1O | -20
CCOC(=O)c1ccc(C#Cc2ccc3c(c2)C(C)(C)CCS3)nc1 | -7
O=c1c2ccc(C(F)(F)F)cc2ncn1CCC1CCCCN1C1CCCC1 (stereo not drawn) | -5
CNC(=O)c1c(I)c(C(=O)NCC(=O)Nc2c(I)c(C(=O)O)c(I)c(C(=O)NCCO)c2I)c(I)c(N(C)C(C)=O)c1I | -15
O=C(Cn1cncn1)NCCc1ccccc1 | -4
COCn1ccnc1P(=O)(O)c1ccccc1 | -15
COC(=O)[C@@H]1C2C[C@H]3c4[nH]c5ccccc5c4CCN3C[C@@H]2CC[C@@H]1O (stereo partly drawn) | -2
N#C/C(=C\Nc1ccc(C(N)=O)cc1)c1nc(-c2cccc(Br)c2)cs1 | 6
O=c1c2cccc(C(F)(F)F)c2ncn1Cc1ccc(Cl)s1 | -19
COc1ccc2c(c1)c(CC(=O)NCCc1ccccc1)c(C)n2C(=O)c1ccc(Cl)cc1 | -16&-16
NC(=O)c1ccsc1NC(=O)C1COc2ccccc2O1 (stereo not drawn) | -4
COc1ccc2oc(=Nc3ccccc3)c(C(N)=O)cc2c1 | -36&-42
Next section.
SMILES | HCMV NEC inh
CN(c1ccc(OC(F)(F)F)cc1)c1cc(-c2cccc(C(N)=O)c2)ncn1 | 13
O=C(C=Cc1ccc(CN(CCO)CCc2c[nH]c3ccccc23)cc1)NO | -45
COc1ccc(N2CCN(CC(O)COC3C4(C)CCC(C4)C3(C)C)CC2)cc1 (stereo not drawn) | -8
CS(=O)(=O)NC(=O)CCC/C=C\C[C@H]1C(=O)C[C@@H](O)[C@@H]1/C=C/[C@@H](O)COc1ccccc1 | -22&-22
Cc1cc(NC(=O)CCN2C(=O)/C(=C\c3ccccc3F)SC2=S)no1 | -18
C=C[C@]1(C)CC(OC(=O)CSC(C)(C)CNC(=O)C(N)C(C)C)[C@@]2(C)C(C)CC[C@]3(CCC(=O)[C@H]32)C(C)C1O (stereo partly drawn) | -13
CC(C)(C)c1ccc(/C=C/C(=O)O)s1 | -33
O=C(/C=C/c1ccccc1)NC(NC(=S)Nc1ccc(Cl)cc1)C(Cl)(Cl)Cl (stereo not drawn) | -2
CCOC(=O)c1ccc(NC(=O)c2ccccc2OC(C)=O)cc1 | -10
CCOC(=O)CSC1=C(C#N)C(c2ccc(C(C)C)cc2)C2=C(CCCC2=O)N1 (stereo not drawn) | -13
O=C1C2C3C=CC(C3)C2C(=O)N1c1ccc(O)cc1 (stereo not drawn) | 2
Brc1snnc1-c1ccccc1 | -7
COC(=O)CCCCCC[C@@H]1[C@@H](CCC(O)C#Cc2ccccc2F)[C@H](O)C[C@@H]1O (stereo partly drawn) | -17&-17
O=c1oc2c(CN3CCOCC3)c(O)ccc2c2c1CCC2 | 0
O=S(=O)(Nc1cccnc1)c1ccc2c(c1)OCCO2 | 6
Cc1cc(C)n(C(=O)c2ccc(NC(=O)C3CCCCC3)cc2)n1 | -5
COc1ccc2oc(=O)c(C(=O)c3ccccc3)cc2c1 | -15
Nc1cccc(-c2cccc(OCc3ccccc3)c2)n1 | 37&37
COc1ccccc1C(=O)NCCSc1c[nH]c2ccccc12 | -3
CCOC(=O)c1c(-c2ccc(C)cc2)csc1NC(=O)c1ccco1 | -14
COc1cccc(OC)c1-c1noc(CCN2C(=O)COc3ccccc32)n1 | -7
COC(=O)c1cccn1-c1ccc(Br)cc1 | -4
OCCNc1nc2ccccc2[nH]1 | -11
N#Cc1ccc(C(N)CC(=O)O)cc1 (stereo not drawn) | 12
Cc1ccc2cccc(OCc3ccccc3)c2n1 | -29
Following part.
SMILES | HCMV NEC inh
CCCC(C)c1nc2c(cnn2CC(C)C)[nH]1 (stereo not drawn) | -6
COc1ccc2cc(CCNC(=O)CC(C)C)c(=O)[nH]c2c1 | -15
CC(NC(=O)c1cccs1)C(c1cccs1)N1CCOCC1 (stereo not drawn) | -15
CCc1nc(NC(=O)NCCc2nc(-c3ccc(C)cc3)no2)nn1C | -16&-16
OCCCCCNc1nccc(-c2cnn(-c3ccccc3F)c2)n1 | -8
CON=C(C(=O)NC1C(=O)N2C(C(=O)O)=C(COC(C)=O)CSC12)c1csc(N)n1 (stereo not drawn) | -61
CCC(Sc1nc2c(c(=O)n1-c1ccccc1)SCC2)C(=O)OC (stereo not drawn) | 4
Cn1cc(CNCC2CCN(c3ncc(C(=O)NO)cn3)CC2)c2ccccc21 | -18
O=C1c2ccccc2C(=O)C1c1ccncc1 | -93
O=C(CCSc1nnc2ccccn12)Nc1ccc(F)cc1 | -4
COc1cccc(C(=O)Nc2c3c(nn2-c2ccc(F)cc2)CSC3)c1OC | 4
O=c1cc(-c2cccc3c2Sc2ccccc2S3)oc(N2CCOCC2)c1 | -7&6&-7&-2&-1&-3&1&7&1&3
Cc1ccc(S(=O)(=O)N2CCCCC2)cc1C | 3
CCCCC[C@H](O)CC[C@@H]1[C@@H](CCCCCCC(=O)O)[C@@H](O)C[C@H]1O | -11&-11
Cc1nc2ccc(NC(=O)COc3ccc(Cl)cc3)cc2s1 | 5
COc1ccc2c(c1)sc(=NC(=O)CSC(C)=O)n2C | -21
Cc1cc(C)c(S(=O)(=O)N2CCCCC2)cc1C | -10
c1coc(-c2nc3c(cnn3Cc3cccs3)[nH]2)c1 | -26
O=c1[nH]c2ccc(Br)cc2c(-c2ccccc2)c1CN1CCCCC1 | -15
O=C(c1ccccc1)c1ccccc1NS(=O)(=O)c1ccccc1 | -2
Cn1cc(C=C2C(=O)Nc3cccnc32)c2ccccc21 | -35&-59&-57
CCOC(=O)c1ccc(NC(=O)c2cc3ccccc3c(=O)s2)cc1 | -11
COc1ccc(NC(=O)CCn2c(=O)sc3ccccc32)cc1 | 1
O=C(CCCN1C(=O)/C(=C/c2ccccc2)SC1=S)Nc1ccc(C(=O)O)cc1 | -85
